# gsp ag: activates gsp, the McCune-Albright syndrome mutation | gsp mutant cells, cAMP HTRF, 30 min; control for the full effect not named in the record | Potency, µM (series often up to 76.9 µM), without a hit: at the highest dose activation (cAMP increase), hits mostly activators | hit rate 0.13% among 340,000; active = well fitted activation curve with a large enough effect; inconclusive = small, poorly fitted or top-dose-only effect, or another doubt; inactive = no such curve, though single readings can be large or run the other way; cell line not stated here;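 also: phosphodiesterase inhibitor Ro 20-1724 added with compounds to block cAMP breakdown; potency is read from the fitted curve at half-maximal effect; nearly all actives have a fitted effect of over 60% in size; about a fifth of the inactives were tested at one dose only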
#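 Cells in DMEM/10% FBS with G418 were pretreated with compounds in DMSO plus […] (300 uM stock) for 30 min at 37C. cAMP was measured by HTRF (cAMP-d2 plus anti-cAMP antibody-K) after 30 min at room temperature.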
# Sfp inh: Sfp phosphopantetheinyl transferase inhibition. Biochemical Sfp PPTase activity, qHTS. Potency, µM, inactives show max response, negative = inhibition, usual class: inhibitors. hit rate 3.5% among 310,000. AID 1490; active = well fitted inhibition curve with a large enough effect; inconclusive = small, poorly fitted or top-dose-only effect, or another doubt; inactive = no such curve, though single readings can be large or run the other way;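 also: the enzyme is Sfp with the accession as filed and its product quenches rhodamine fluorescence; potency is read from the fitted curve at half-maximal effect; 0% = enzyme reaction without inhibitor and -100% = no enzyme wells; top concentration of the series not given in the record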
#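 Fluorescence-quenching assay: 15 nM Sfp-PPTase preincubated 15 min at room temperature with compound, then 5 uM rhodamine-CoA and 12.5 uM BHQ-2-labelled YbbR peptide added. Fluorescence (ex 525/em 598 nm) read at start and after 30 min; difference gives rate.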
# gsp antag: antagonizes gsp, the McCune-Albright syndrome mutation | gsp-mutant cells, cAMP HTRF, 30 min; control for the full effect not named in the record | Potency, µM (titrated, usually from 76.9 µM), for inactives: at the top dose activity change, negative = inhibition, most hits filed as inhibitors | hit rate 0.4% among 340,000 | AID 624288; active = falling curve of any shape with a large fitted effect; inconclusive = falling curve, mostly with a smaller effect; inactive = flat or rising curve; cell line not stated here;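 also: intracellular cAMP measured with PDE inhibitor Ro 20-1724 present during compound exposure; potency is read from the fitted curve at half-maximal effect; % is scaled to controls: 0 for no effect and ±100 for the full control effect; nearly all actives have a fitted effect of over 65% in size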
#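 Measurement of cellular cAMP by homogeneous time-resolved fluorescence following a 30 min compound exposure at 37C. The PDE inhibitor […] was present throughout; the assay buffer was DPBS with 0.05% BSA and 0.005% Tween 20.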
# ClpP mod: qHTS Assay for Activators of ClpP. purified B. subtilis ClpP, FRET peptide cleavage, 20 min. Potency, µM (series often up to 57.5 µM), without a hit: at the highest dose activity change, negative = active. hit rate 1.9% among 340,000; active = well fitted falling curve with a large enough effect; inconclusive = small, poorly fitted or top-dose-only effect; inactive = no such curve, though single readings can be large or run the other way; also: potency is read from the fitted curve at half-maximal effect; the source files actives as falling curves though it sought activators and does not explain the sign; nearly all actives have a fitted effect of over 65% in size; many hits overshoot -100%
# Target sequence (P80244 whole entry, looked up): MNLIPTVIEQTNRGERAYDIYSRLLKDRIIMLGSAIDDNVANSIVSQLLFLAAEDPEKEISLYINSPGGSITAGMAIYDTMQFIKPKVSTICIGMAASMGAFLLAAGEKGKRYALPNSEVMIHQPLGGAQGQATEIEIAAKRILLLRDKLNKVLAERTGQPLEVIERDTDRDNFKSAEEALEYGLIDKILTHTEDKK
#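 FRET quenching reversal measured ClpP activation: 10 microg/mL B. subtilis ClpP at pH 8 with the FRET-FV decapeptide, read at 430 nm after 320 nm excitation. The 20-min minus 0-min signal was scaled between DMSO/no-enzyme wells and ADEP (5.8 microM final).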
# Menin MLL FP FL: inhibitors of human menin-MLL interaction, wild-type MLL peptide. Fluorescence polarization, fluorescein-MLL peptide displacement from menin. FP activity change, % at 61.4 µM. 290,000 tested, under 10 active. AID 1766; inconclusive = falling polarisation curve, or a change in total fluorescence; inactive = total fluorescence flat and polarisation flat or rising; no compound was filed as active; the % refers to the polarisation; negative = inhibition;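 also: % of control where 0% means no effect; inhibitors lower the polarisation; unlabelled MLL peptide was the positive control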
# D2 PAM: potentiates the human D2 dopamine receptor allosterically | DiscoveRx D2 beta-arrestin cells, luminescence, 90 min; 100% = 57 uM dopamine signal | potentiation, % (concentration not given with the values) | hit rate 0.23% among 360,000 | AID 624464; active = potentiation of 50% or more; inconclusive = 30% to 50%; inactive = 30% or less;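 also: compound concentration not given in the record; tested on top of an EC20 dose of dopamine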
#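 D2 cells co-treated with compound plus 50 nM dopamine (EC20) for 90 min at 37 deg C to detect potentiation. Beta-arrestin recruitment was read as enzyme-fragment luminescence after 1 h at ambient temperature. Full response was set by 57 uM dopamine.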
# TRPV1 potentiator: enhances activation of the human vanilloid receptor TRPV1; hit rate 0.02% among 320,000; TRPV1-expressing cells, Fluo-8 calcium influx, capsaicin EC20 potentiation; host cell line not named in the record; control for the full effect not named in the record; potentiation, % at 8.33 µM; Q8NER1; active means potentiation above 80%; inconclusive means 30% to 80%; inactive means below 30%; also: 0% is about no effect
# Target sequence (Q8NER1 whole entry, looked up): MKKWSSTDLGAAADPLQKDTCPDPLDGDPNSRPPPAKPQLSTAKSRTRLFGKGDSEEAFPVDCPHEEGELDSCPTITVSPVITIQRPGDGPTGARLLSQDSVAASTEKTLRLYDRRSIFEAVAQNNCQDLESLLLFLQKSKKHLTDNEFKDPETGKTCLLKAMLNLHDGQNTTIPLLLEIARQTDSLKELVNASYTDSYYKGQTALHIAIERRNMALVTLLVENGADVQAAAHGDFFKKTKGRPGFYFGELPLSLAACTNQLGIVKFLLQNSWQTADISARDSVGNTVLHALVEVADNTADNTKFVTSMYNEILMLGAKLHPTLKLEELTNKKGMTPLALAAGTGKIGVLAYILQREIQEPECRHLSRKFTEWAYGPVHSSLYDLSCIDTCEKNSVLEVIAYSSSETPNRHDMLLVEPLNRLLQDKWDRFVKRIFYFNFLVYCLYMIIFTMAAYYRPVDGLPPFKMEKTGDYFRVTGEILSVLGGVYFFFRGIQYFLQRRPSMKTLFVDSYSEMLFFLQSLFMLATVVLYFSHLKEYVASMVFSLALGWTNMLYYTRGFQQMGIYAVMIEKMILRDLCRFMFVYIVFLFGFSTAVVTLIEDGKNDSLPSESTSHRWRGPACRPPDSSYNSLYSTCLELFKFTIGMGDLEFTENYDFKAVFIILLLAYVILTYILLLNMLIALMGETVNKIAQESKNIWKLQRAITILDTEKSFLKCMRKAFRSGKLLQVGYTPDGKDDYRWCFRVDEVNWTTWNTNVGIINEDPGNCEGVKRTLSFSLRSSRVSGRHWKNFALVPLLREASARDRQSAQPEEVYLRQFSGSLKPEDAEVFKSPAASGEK
#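 Cells expressing TRPV1 were dye-loaded with Fluo-8 and read kinetically: 10 s baseline, 3 min after compound (agonist portion), then 2 min after EC20 capsaicin (allosteric enhancer portion). Calcium-bound dye fluorescence at 480/520 nm.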
# Numbers without * were called inactive; i = inactive; ? = inconclusive; . = not tested or not shown; & = joins results of further samples; [ ] = remark or other dose. Outcome played no part in choosing rows. Share with any hit: about 5.1%.
SMILES,gsp ag,Sfp inh,gsp antag,ClpP mod,Menin MLL FP FL,D2 PAM,TRPV1 potentiator
CCCCOc1ncnc2c1[nH]c1ccc(OCC)cc12,20%,6%,-3%,-29%,1.5,-3,22
O=C1C(Cc2ccccc2)Nc2ncnc(N3CCCCC3)c2N1Cc1ccc(Cl)cc1 (stereo unspecified),-30%,.,1%,0.0%,.,-25,-4
Cc1cccc(NS(=O)(=O)c2ccc(-n3cccn3)cc2)c1C,-45%[inhibitor],10%,-14%,-0.9%&-1.8%,.,-11,1
O=C(ON=C1CCN(S(=O)(=O)c2ccccc2)CC1)c1ccc(F)cc1,9%,9%,0%,0.6%,0.2,-9,-27
O=C(CN1CCCCC1)Nc1ccccc1Cl,-11%,11%,-14%,0.3%,-1.3,-3,-7
CC(Sc1nc2ccccc2[nH]1)C(=O)Nc1ccccc1F (stereo unspecified),0%,7%,-19%,0.1%,0.7,-9,5
CCCN1C(=O)C2(C(C(=O)c3ccc(C)o3)=C(O)C(=O)N2CCCN2CCOCC2)c2ccccc21 (stereo unspecified),13%,9%,14%,-6.2%,1.3,-10,9
CCOC(=O)/C(=N\Nc1cc(Cl)ccc1Cl)N1CCN(C)CC1,4%[15.4 µM],-29%,17%,1.0%,.,-20,18
CCc1cc2c(=O)c(-c3nc4ccccc4n3C)c(C)oc2cc1OC(C)=O,.,10%,11%,-28%,-0.1,-18,?
Fc1ccccc1N1CCN(c2nnnn2-c2ccccc2)CC1,-48%[inhibitor],13%,-3%,-2.9%,1.7,-9,-12
Cc1cc(N2CC(C(=O)NCc3cccnc3)CC2=O)ccc1C(C)C (stereo unspecified),-1%,-1%,13%,-1.4%,-1.4,-6,-9
NC(=S)N/N=C1\CC(n2nnnc2-c2ccccc2)C2COC1O2 (stereo unspecified),-13%,-53%,14%,0.9%,-8.8,-10,-6
O=C1CC2(CCN(C(=O)COc3ccc(Cl)cc3)CC2)Oc2ccccc21,3%[15.4 µM],.,-5%,.,.,4,-6
C=CCn1c(SCC(=O)c2cc(C)n(Cc3cccs3)c2C)nnc1-c1ccncc1,-18%,-10%,?,3.5%,0.0,-13,7
CCN1CCN(c2nc3c(C)cccn3c(=O)c2/C=C(\C#N)C(=O)NCCCOC)CC1,?,19%,5%,3.5%,0.5,-8,0
CCCn1nc(C(=O)NCc2ccc3c(c2)OCO3)c2ccccc2c1=O,-6%[15.4 µM],-11%,-21%,-2.4%,-0.4,-6,6
COc1ccc(CC(=O)NNC(=O)CN(C)S(=O)(=O)c2ccc(Cl)cc2)cc1OC,-34%[inhibitor],.,8%,-1.8%,.,-3,3
CC1CCN(c2ccc(C(=O)O)cc2N)CC1,13%,10%,5%,?,2.2,1,-4
Cc1ccc(NC(=O)CCN2C(=O)c3cccc([N+](=O)[O-])c3C2=O)c(Br)c1,4%[15.4 µM],4%,-20%,0.0%,-7.9,-5,-3
CC(c1ccccc1)N(CCC(c1ccccc1)C1CCOC(C)(C)C1)C(=O)c1ccco1 (stereo unspecified),-20%,-22%,?,1.3%,3.7,-26,-25
Cc1ccc(S(=O)(=O)NCc2ccccn2)c(C)c1C,0%,2%,-16%,-2.5%,0.8,-5,-1
CC1CN(/C=C/C(=O)C(F)(F)F)CC(C)O1 (stereo unspecified),24%,-14%,7%,.,-1.0,-7,12
C=CCNC(=S)NC(=O)c1oc2ccccc2c1C,3%,11%,-15%,.,-3.4,-3,6
CCOc1ccccc1-n1nnnc1SCC(=O)OC,13%[15.4 µM],19%,.,.,-0.2,-19,7
CCOC(=O)/C=C1\SCC(=O)N1CC(=O)NC1CCCCC1,1%,-7%,5%,-1.4%,1.3,-1,-3
C[C@@H]1CN(C(=O)c2nc3ccc(Cl)cn3c2CN2CCc3sccc3C2)C[C@H](C)O1,?,7%,-2%,-5.7%,-12,-6,-19
CC(=O)c1ccc(N2CCN(C(=S)Nc3ccccc3F)CC2)cc1,19%,7%,2%,-21%,5.7,-2,-10
CN(C(=O)c1cccc(NC(=O)Cc2cccc(NC(=O)C3CCCN(C(=O)C4CC4)C3)c2)c1)C1CCC1 (stereo unspecified),.,.,2%,3.2%,.,11,.
CCN1CCN(CCNC(=O)c2ccc(CS(=O)c3ccc(Cl)cc3)o2)CC1 (stereo unspecified),2%,17%,-18%,0.4%,0.5,-10,18
Cc1cc(C)cc(NC(=O)C(OC(=O)c2cccs2)c2ccccc2)c1 (stereo unspecified),9%[15.4 µM],14%,0%,-0.5%,6.5,0,-4

# In another format: results already given.
# Values run as follows: gsp ag | Sfp inh | gsp antag | ClpP mod | Menin MLL FP FL | D2 PAM | TRPV1 potentiator
- CCOc1ccccc1-n1nnnc1SCC(=O)OC
 : 13%[15.4 µM] | 19% | . | . | -0.2 | -19 | 7
- Cc1cc(C)cc(NC(=O)C(OC(=O)c2cccs2)c2ccccc2)c1 (stereo unspecified)
 : 9%[15.4 µM] | 14% | 0% | -0.5% | 6.5 | 0 | -4
- CCCn1nc(C(=O)NCc2ccc3c(c2)OCO3)c2ccccc2c1=O
 : -6%[15.4 µM] | -11% | -21% | -2.4% | -0.4 | -6 | 6

# (more compounds)
SMILES,gsp ag,Sfp inh,gsp antag,ClpP mod,Menin MLL FP FL,D2 PAM,TRPV1 potentiator
CCC(=O)c1ccc(OCC(O)CN2C(=O)NC(C)(C)C2=O)cc1 (stereo unspecified),1%,-4%,-3%,0.3%,4.2,-4,5
Cc1ccccc1NC(=O)CSc1nnc(CNC(=O)c2ccco2)n1C,7%,.,11%,1.1%,.,-22,8
Cc1ccc(S(=O)(=O)NCC(C)n2nc(C)nc2C)cc1 (stereo unspecified),-10%,22%,8%,.,-8.5,-2,-1
COCc1cc(C)[nH]c(=O)c1C(=O)NC12CC3CC(CC(C3)C1)C2,11%,-16%,8%,.,1.8,0,-4
CCN(CC)c1ccc(C(=S)N2CCN(c3ccccc3)CC2)cc1,1%,?,7%,-0.3%,1.8,-6,-4
Cc1ccc(N2CC(C(=O)NCc3ccc4c(c3)OCO4)CC2=O)cc1C (stereo unspecified),0%,-3%,-1%,-2.7%,0.4,-10,-16
O=C(Nc1ccccc1)Nc1ccc(-n2ccc(C(F)(F)F)n2)cc1,?,1%,-3%,-4.3%,-1.2,-16,-15
CN(Cc1ccccc1)Cc1nc2scc(-c3ccccc3)c2c(=O)[nH]1,29%,0%,-4%,.,?,-13,22
O=S(=O)(c1ccc(Cl)cc1)c1cnc2ccccc2n1,0%,20%,-8%,.,-0.1,-8,-7
CC(=O)c1ccc(OCCCC(=O)Nc2cc(S(=O)(=O)N(C)C)ccc2C)cc1,-50%[inhibitor],12%,-3%,1.0%,-2.1,-31,2
COC(=O)[C@]1(C)N[C@H](CN(C)S(=O)(=O)c2ccccc2)[C@@H]2C(=O)N(C)C(=O)[C@@H]21,.,.,8%,-0.7%,.,-6,.
Cc1cccc([C@@H]2C[C@H]3CN(Cc4cccc(Cl)c4)C(=O)[C@]34CCCN24)n1,-4%,-7%,10%,.,7.5,-11,4
Cc1c(Cl)c([N+](=O)[O-])nn1CC(=O)NCc1cccs1,26%,8%,9%,-1.0%,0.9,-8,-2
Cc1ccc(NS(=O)(=O)c2ccc(NC(=O)C3CCCO3)cc2)cc1 (stereo unspecified),-14%,?,10%,32µM*,-2.3,6,7
Cn1c2c(c(=O)n(C)c1=O)C(NS(=O)(=O)c1ccccc1)(C(F)(F)F)C(=O)N2 (stereo unspecified),1%,25%,7%,-5.5%,0.2,-1,2
CCOC(=O)c1cnn(-c2ccccc2)c1N,22%,-1%,5%,-0.5%,-0.1,3,3
Cc1nc(SCC(=O)NC(C)c2ccccc2)c2oc3ccccc3c2n1 (stereo unspecified),5%,?,2%,-1.1%,-0.6,-16,-13
CCCCCC(=O)N1CC2(CC(c3cccc(NC(=O)c4ccccc4)c3)=NO2)C[C@@H]1C(N)=O (stereo partly specified),.,19%,-2%,0.0%,2.5,1,3
Cc1nc(-c2ccc(C(=O)Nc3ccccc3F)cc2)cs1,11%[15.4 µM],16%,6%,.,-2.5,-14,-3
COC(=O)c1c(NC(=O)C2CCCO2)sc2c1CCC2 (stereo unspecified),7%,-16%,-9%,-7.8%,-0.9,-22,-3
CC(C)c1nnc(NC(=O)CSc2nnc(-c3ccco3)o2)s1,6%[15.4 µM],23%,7%,0.3%,0.5,-3,-6
Cc1ccc(S(=O)(=O)NCCC(=O)Nc2cc(F)ccc2C)cc1C,5%[15.4 µM],13%,.,.,6.0,-18,14
CC1CC(=O)N(c2ccc(Br)cc2)C(=O)C1,-38%[inhibitor],11%,7%,0.8%,1.7,-1,4
CCCNc1c(NS(=O)(=O)c2ccc(Br)cc2)c(=O)oc2ccccc12,-41%[inhibitor],12%,-12%,.,1.8,-6,-3
CN(C)CCNC(=O)c1[nH]nc2c1CCc1ccccc1-2,-6%[15.4 µM],9%,7%,-0.3%,7.0,-11,19
COc1cc2c(cc1OC)C(C)N(C(=O)c1cc3c(s1)-c1ccccc1OC3)CC2 (stereo unspecified),14%,-26%,-24%,3.7%,0.6,-1,6
O=C(Nc1ccc(S(=O)(=O)N2CCc3ccccc3C2)cc1)c1ccccc1,12%,17%,18%,44%,4.5,-14,2
CSc1nc2nc(C)c(CCC(=O)OCC(=O)Nc3ccc(F)cc3)c(C)n2n1,-6%,.,-7%,-13%,.,-4,0
Cc1cc(C)cc(N2CC(C(=O)NC3CCCCC3)CC2=O)c1 (stereo unspecified),13%[15.4 µM],3%,-7%,.,-11,-9,3
COc1ccc([C@]23Cc4cc(OC)c(OC)cc4C(O2)C2=C(CC(C)(C)CC2=O)O3)cc1,.,1%,.,.,3.7[11.7 µM],.,i
CC(=O)Nc1nnc(SCC(=O)NCC2CCCO2)s1 (stereo unspecified),-2%,-1%,0%,-1.1%,-0.3,5,-4
COc1ccc(CNC(=O)CSc2n[nH]c(C)c2[N+](=O)[O-])cc1,-41%[inhibitor],-8%,-9%,0.9%,-0.8,-19,-12
O=C(COc1ccccc1[N+](=O)[O-])Nc1ccc2c(c1)CCC2,-12%,.,?,4.5%,.,-4,0
